MT1-MMP reporter = MT1-MMP gene expression reporter suppression – cell-based, luciferase reporter, luminescence (AID 618); MT1-MMP promoter luciferase reporter cells, luminescence; calls from a first round at 10 µM; hits with a dose series show EC50 in µM; 87,000 tested, 0.62% active;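 active = over half of the reporter light lost at 10 µM or EC50 under 50 µM; inactive = the rest and hits that failed the dose series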;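 note: actives suppress MT1-MMP promoter-driven transcription so potencies describe inhibitors; HT1080 fibrosarcoma cells; overnight exposure; toxic or luciferase-blocking compounds were not removed from the actives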
Hsc70 ATP site = Hsc70 inhibitors, probe displacement, primary screen, biochemical, fluorescence polarization (AID 568). one-dose displacement, % at 20 µM; IC50 in µM for titrated hits. Hsc70 fluorescence polarization, probe displacement; higher % means a stronger effect; strong numbers were not always called active. 83,000 tested, under 10 active;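 active = displacement above 50% without optical interference and an IC50 on retest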;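 note: ATPase domain with a fluorescein-tagged ATP probe; 0% = vehicle and 100% = excess ADP; read after one hour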
WNV protease inh = inhibitors of West Nile virus NS2B-NS3 protease. P06935. WNV NS2B-NS3 protease, fluorogenic substrate Ex360/Em465; active compounds read low. z-score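 (tested at a level between 10 and 100 µM)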. 65,000 tested, 0.18% active. AID 577;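 active = z-score at -3 or under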;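 note: score is relative to mean and spread of the compound wells of a plate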
Target sequence (P06935 1371-1501 limits assumed): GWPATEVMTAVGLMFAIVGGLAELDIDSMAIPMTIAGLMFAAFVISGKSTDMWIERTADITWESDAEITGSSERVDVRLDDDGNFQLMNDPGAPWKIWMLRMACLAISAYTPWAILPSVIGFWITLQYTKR
Target sequence (P06935 1502-1679 limits assumed): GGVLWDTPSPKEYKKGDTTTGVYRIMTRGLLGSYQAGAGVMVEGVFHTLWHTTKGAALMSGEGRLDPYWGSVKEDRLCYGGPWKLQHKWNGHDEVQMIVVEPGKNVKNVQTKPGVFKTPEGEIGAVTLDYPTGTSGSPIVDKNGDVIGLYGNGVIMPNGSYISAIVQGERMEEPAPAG
Numbers without * were called inactive; i = inactive; · = no result given.

SMILES | MT1-MMP reporter | Hsc70 ATP site | WNV protease inh
CN(C)CCCN1c2ccccc2Sc2ccccc21 | i | -3.8% | 0.29
COc1ccccc1OCC(O)COC(N)=O (stereo unspecified) | i | 1.0% | 0.36
CCOc1ccc(S(=O)(=O)N2CCCCCC2)c2ccccc12 | i | 4.1% | ·
COc1ccc(CN(CCN(C)C)c2ccccn2)cc1 | i | -2.8% | -0.21
CC1=NN(c2ccccc2)C(=O)C1 | i | -1.9% | 0.21
C[C@]12CC[C@H]3[C@@H](CCC4=CC(=O)CC[C@@]43C)[C@@H]1CC[C@@H]2C(=O)CO | i | 1.0% | 0.21
c1ccc2c(CC3=NCCN3)cccc2c1 | i | -3.8% | 0.36
Cc1nnc(NS(=O)(=O)c2ccc(N)cc2)s1 | i | 0.1% | 0.1
NS(=O)(=O)c1cc2c(cc1C(F)(F)F)NC(Cc1ccccc1)NS2(=O)=O (stereo unspecified) | i | -0.9% | -0.2

Some values from the list.
COc1ccc(CN(CCN(C)C)c2ccccn2)cc1 in WNV protease inh shows -0.21
CN(C)CCCN1c2ccccc2Sc2ccccc21 in WNV protease inh shows 0.29
c1ccc2c(CC3=NCCN3)cccc2c1 in WNV protease inh shows 0.36

Taken from the results shown for reference:
SMILES | MT1-MMP reporter | Hsc70 ATP site | WNV protease inh
COc1ccccc1OCC(O)COC(N)=O (stereo unspecified) | i | 1.0% | 0.36
CCOc1ccc(S(=O)(=O)N2CCCCCC2)c2ccccc12 | i | 4.1% | ·
COc1ccc(CN(CCN(C)C)c2ccccn2)cc1 | i | -2.8% | -0.21

Ordered by SMILES length (ascending): some entries from above.
SMILES | MT1-MMP reporter | Hsc70 ATP site | WNV protease inh
CC1=NN(c2ccccc2)C(=O)C1 | i | -1.9% | 0.21
COc1ccccc1OCC(O)COC(N)=O (stereo unspecified) | i | 1.0% | 0.36
C[C@]12CC[C@H]3[C@@H](CCC4=CC(=O)CC[C@@]43C)[C@@H]1CC[C@@H]2C(=O)CO | i | 1.0% | 0.21

Assay outcomes as filed in PubChem BioAssay.

This is a subset; rates above refer to the full screens.
